# RE007 growth inh = less growth of the S. pombe RE007 Vpr strain; S. pombe RE007 Vpr strain, BacTiter-Glo ATP luminescence, 24 h; control for the full effect not named in the record; Potency, µM (top dose mostly 92.2 µM), for the others: at the top dose activity change, negative = less growth; actives 0.21% (n = 360,000); active = well fitted falling curve with a large enough effect; inconclusive = small, poorly fitted or top-dose-only effect; inactive = no such curve, though single readings can be large or run the other way;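 note: % is set by controls: 0 for no effect and ±100 for the full control effect; nearly all actives have a fitted effect of over 50% in size; the assay follows cell death caused by Vpr and the record does not say whether a fall means rescue or toxicity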
#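 Fission yeast strain RE007, carrying one chromosomally integrated HIV-1 vpr copy, was seeded at OD 0.01 in PMG+AL medium with 23 nL pinned compound. After 24 h at 30 °C and 99% humidity, viability was read by BacTiter-Glo luminescence.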
# Cruzain inh Det = cruzain (T. cruzi) inhibition with detergent | P25779 | purified cruzain, Z-FR-AMC fluorescence, 0.01% Triton | Potency, µM, inactives show max response, negative = inhibition, most hits filed as inhibitors | actives 0.43% (n = 200,000) | AID 1478; active = well fitted curve in the direction sought with a large enough effect; inconclusive = small, poorly fitted or top-dose-only effect, or another doubt; inactive = no such curve, though single readings can be large; an effect the other way counts as inactive or inconclusive;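 note: plate controls were neutral wells for no effect and buffer without enzyme for full effect; nearly all actives have a fitted effect of over 40% in size; top concentration of the series not given in the record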
# Target sequence (P25779 123-467 limits assumed): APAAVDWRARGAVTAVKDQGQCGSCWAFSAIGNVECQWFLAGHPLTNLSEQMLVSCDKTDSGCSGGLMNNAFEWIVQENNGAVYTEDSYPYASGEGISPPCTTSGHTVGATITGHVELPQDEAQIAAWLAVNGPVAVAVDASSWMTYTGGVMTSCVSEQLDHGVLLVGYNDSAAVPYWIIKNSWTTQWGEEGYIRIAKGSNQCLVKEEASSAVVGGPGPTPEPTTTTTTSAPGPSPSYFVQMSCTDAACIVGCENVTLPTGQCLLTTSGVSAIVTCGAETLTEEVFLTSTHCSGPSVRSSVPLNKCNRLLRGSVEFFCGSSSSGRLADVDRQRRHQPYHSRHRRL
#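 Sodium acetate buffer (100 mM, pH 5.5) containing 5 mM DTT and 0.01% Triton X-100 hosted 1.5 nM cruzain and test compound for 15 min at room temperature. Cleavage of 2 uM Z-FR-AMC was then tracked by fluorescence.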
# MARV entry inh = Marburg virus entry inhibition; actives 1.8% (n = 300,000); Potency, µM (titrated, usually from 37.8 µM), inactives show at the top dose activity change, negative = inhibition, actives largely listed as inhibitors; Marburg virus pseudotyped entry inhibition, cell reporter; control for the full effect not named in the record; about a third of the inactives were read at about 46 µM; AID 540276; active = well fitted inhibition curve with a large enough effect; inconclusive = small, poorly fitted or top-dose-only effect, or effect the other way; inactive = flat fitted curve, though single readings scatter; tested in HEK293 cells; about a fifth of its hits are not listed in these tables; note: % is set by controls: 0 for no effect and ±100 for the full control effect; luciferase read-out
# SARS PLpro yeast = SARS-CoV PLP inhibition in yeast; S. cerevisiae expressing SARS-CoV PLpro, growth rescue; control for the full effect not named in the record; Potency, µM (series often up to 32.9 µM), for the others: at the highest dose activity, positive = growth rescue; actives 0.19% (n = 330,000); AID 485353; note: 0% is about no effect; nearly all actives have a fitted effect of over 55% in size; growth read by luminescence after 48 h
# 2A StopGo = lowers the luciferase signal of an FMDV 2A StopGo reporter | human cells with a luciferase reporter of 2A StopGo recoding; control for the full effect not named in the record | Potency, µM (series often up to 57.9 µM), for inactives: at the top dose signal change, negative = less light | actives 1.2% (n = 410,000); active = well fitted falling curve with a large enough effect; inconclusive = small, poorly fitted or top-dose-only effect; inactive = no such curve, though single readings can be large or run the other way; tested in HEK293T cells; note: % is set by controls: 0 for no effect and ±100 for the full control effect; nearly all actives have a fitted effect of over 45% in size; luciferase light after 4 h
# NS1 inh = blocks influenza NS1 protein function. S. cerevisiae slowed by influenza A NS1, growth recovery by OD600. Potency, µM (titrated, usually from 46.1 µM), inactives show at the top dose activity, positive = more growth. actives 0.4% (n = 270,000); note: actives are rising curves; nearly all actives have a fitted effect of over 50% in size
#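 Growth recovery, yeast-based: influenza A NS1 expressed in S. cerevisiae causes slow growth, and suppressors are detected by OD600. The parent strain without NS1 is used as positive control.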
# LASV entry inh = Lassa virus entry inhibition | Lassa virus pseudotype entry inhibition, cell reporter; control for the full effect not named in the record | Potency, µM (titrated, usually from 37.9 µM), for the others: at the top dose activity change, negative = inhibition, actives largely listed as inhibitors | actives 1.2% (n = 300,000) | AID 540256; active means well fitted inhibition curve with a large enough effect; inconclusive means small, poorly fitted or top-dose-only effect, or effect the other way; inactive means flat fitted curve, though single readings scatter; tested in HEK293 cells; note: % is set by controls: 0 for no effect and ±100 for the full control effect; nearly all actives have a fitted effect of over 50% in size; luciferase read-out
# Cruzain inh noDet = inhibitors of Trypanosoma cruzi cruzain without detergent. purified cruzain, Z-FR-AMC fluorescence, no detergent. Potency, µM, inactives show max response, negative = inhibition, actives largely listed as inhibitors. actives 2.3% (n = 200,000); active = well fitted curve in the direction sought with a large enough effect; inconclusive = small, poorly fitted or top-dose-only effect, or another doubt; inactive = no such curve, though single readings can be large; an effect the other way counts as inactive or inconclusive;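 note: plate controls were enzyme without inhibitor for no effect and buffer without enzyme for full effect; nearly all actives have a fitted effect of over 40% in size; top concentration of the series not given in the record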
#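 Detergent-free condition (0.00005% Triton X-100) in acetate buffer pH 5.5 with DTT. 1.5 nM enzyme and compound were pre-mixed 15 min, then 2 uM Z-FR-AMC substrate added; reaction progress from fluorescence change between first and third reads (60 s).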
# Active calls of the source: *; ? = inconclusive; . = no result given; & = joins results of further samples; [ ] = dose if it differs, or a comment. Unless noted, calls come from the whole dose curve; as a rule, active means well fitted rising curve with a large enough effect; inconclusive means small, poorly fitted or top-dose-only effect; inactive means no such curve, though single readings can be large or run the other way. Potency is the fitted concentration of half-maximal effect. Compounds as they come (roughly 4.8% active in at least one column).
SMILES,RE007 growth inh,Cruzain inh Det,MARV entry inh,SARS PLpro yeast,2A StopGo,NS1 inh,LASV entry inh,Cruzain inh noDet
Cc1nn(C)cc1[C@@H]1C[C@H]2CN(Cc3cccc(Cl)c3)C(=O)[C@]23CCCN13,-5%,.,-24%[46.1 µM],-1%,9%,4%,14%[46.1 µM],.
CCCCNC(=S)N(Cc1ccco1)Cc1cc2cc3c(cc2[nH]c1=O)OCCO3,15%,-6.8%,-18%,3%,-15%,5%,30%,-3%
COc1ccc(Cl)c2sc(NC(=O)C3=COCCO3)nc12,-16%,.,22%[46.1 µM],9%,31%[activator],.,8%,.
O=C(NCCNc1ccc([N+](=O)[O-])cc1C(F)(F)F)c1ccccc1,-18%,-6.8%,?,13%,?,-43%,1%,-10%
Cc1ccc(N2C(=O)N3[C@H](c4ccc(F)cc4)[C@@H]4C(=O)N(C5CCCCC5)C(=O)[C@@H]4[C@]3(C)C2=O)cc1,-6%,.,.,0%,-14%,-13%,.,.
Cn1c(=O)[nH]c(=O)c2c1nc(CN1CCN(Cc3ccccc3)CC1)n2CC(N)=O,-11%,-3.8%,2%,6%,-8%,-14%,.,-5%
Cc1cccc(Cn2c(NCCO)nc3c2c(=O)n(C)c(=O)n3C)c1,9%,0.6%,?,-5%,?,-7%,-29%,10%
CCOc1ccc(CCNC(=O)c2nnn(CC(=O)Nc3ccc(C)cc3)c2N)cc1OCC,-5%,.,.,1%,-23%,-13%,.,.
Cc1ccc(C(=O)COC(=O)Cc2ccccc2)cc1,-4%,.,?,-6%,64%[activator],-6%,6%,.
O=C(CSC1=Nc2ccccc2N=C(c2ccc(F)cc2)C1)NCc1ccc(F)cc1,.,-3.3%,.,.,-30%,.,-12%[46.1 µM],0%
CCCCCCOC1(c2ccccc2)OC(=O)c2ccccc21 (stereo not drawn),-5%,-1.6%,?,-19%,-5%,7%,-17%,-11%
COC(=O)c1cc2occc2n1Cc1nc(-c2ccc(C)cc2)oc1C,.,-5.5%,?,.,-10%,.,.,-11%
COc1ccc(CNC(=O)c2cc(-c3ccc(OC)cc3)on2)cc1,.,-4.1%,?,.,-7%,.,-1%[46.1 µM],27%
CCOC(=O)c1cnc(N2CCN(c3ccc(C)cc3C)CC2)c2ccccc12,.,1.3%,.,.,-3%,.,?,3%
O=C(COC(=O)c1cnc(Cl)c(Cl)c1)NCCC1=CCCCC1,9%,.,-10%[46.1 µM],2%,12%,.,1%,.
O=C(CN1CCCC1=O)NC1C2CC3CC(C2)CC1C3 (stereo not drawn),-6%,-0.6%,1%,23%,0%,10%,-4%,-2%
C=CCN1C(=O)c2ccc(C(=O)OCC(=O)N(C)C3CCCCC3)cc2C1=O,-20%,.,27%[46.1 µM],-5%,-24%,-8%,-7%,.
COCCN(C(=S)Nc1ccc(Cl)cc1OC)C1CCN(C(C)=O)CC1,5%,.,-8%[46.1 µM],-1%,-4%,6%,2%,.
C=C1CCC2C(C)(C)[C@@H](O)CC[C@@]2(C)[C@@H]1COc1ccc2ccc(=O)oc2c1 (stereo partly drawn),-14%,.,.,-9%,0%,-31%,.,.
NC(=O)CC(NC(=O)Cc1ccc(Br)cc1)c1ccc(N2CCc3ccccc3C2)c([N+](=O)[O-])c1 (stereo not drawn),10%,.,.,-4%,-10%,28%,.,.
Cc1cc2nc(SCC(=O)O)nc(C)c2cc1C,14%,0.0%,14%,0%,.,0%,18%,11%
COc1ccc(NC(=O)Cn2cccc2)c(OC)c1,4%,3.6%,22%,-8%,2%,3%,0%,-2%
Cc1ccccc1C(N)=O,10%,3.7%,.,.,-18%,.,.,2%
Cc1cc(Cl)ccc1OCC(=O)NNC(=O)c1cnccn1,-23%,.,8%[46.1 µM],15%,-2%,.,-4%,.
CCOc1ccc(-c2cn3c(n2)sc2cc(C(=O)NCCCc4ccccc4)ccc23)cc1,.,-1.8%,.,.,-2%,.,-14%[46.1 µM],-1%
COC(C[C@H]1O[C@H]1[C@@H](O)COCc1ccccc1)OC,-14%,.,.,2%,-3%,1%,.,.
Cc1ccc(CN2CCNC(=O)C2CC(=O)NCc2csc(C(C)C)n2)cc1 (stereo not drawn),10%,.,10%,7%,-20%,14%,-24%,.
CCc1ccc(/C=N/NC(=O)Cc2ccc(OC)c(OC)c2)s1,-15%,.,?,1%,-10%,-6%,-25%[46.1 µM],.
COc1ccc(C2c3ccc4ccccc4c3Oc3ncn(CCN4CCOCC4)c(=N)c32)cc1 (stereo not drawn),24%,-1.0%,?,-29%,?,2%,10%,-11%
CCSCCC(NC1=CC(=O)CC(C)(C)C1)C(=O)O (stereo not drawn),-13%,4.2%,-10%,1%,12%,8%,3%,0%
COc1ccc(C(C)=O)cc1CSc1nc2ccccc2c(=O)n1-c1ccccc1,-5%,-10%,13%,-7%,-30%,-7%,?,-20%
O=C1CC(CC(=O)N/N=C/c2ccccc2[N+](=O)[O-])=NN1,-2%,-3.9%,14%,24%,-8%,6.3µM*,-5%,-4%
Cc1cccc(C)c1N1CCN(c2c(C)cccc2C)CC1,-15%,.,-6%[46.1 µM],-1%,-9%,12%,8%[46.1 µM],.
Cn1cc(/C=C(\NC(=O)c2ccccc2Cl)C(=O)NCCCn2ccnc2)c2ccccc21,-5%,.,?,2%,-3%,-2%,1%[46.1 µM],.
CCCOC(=O)C1[C@H]2C(=O)N(C(C)c3ccc(OC)cc3)C[C@]23C=C[C@H]1O3 (stereo partly drawn),2%,3.9%,-1%,2%,-10%,-6%,4%,2%
COc1ccc(CNC(=O)COC(=O)CCn2c(C)csc2=O)cc1OC,-7%,.,2%[46.1 µM],0%,-4%,.,-11%,.
NS(=O)(=O)c1ccc(Nc2nc(-c3ccc(F)cc3)cs2)cc1,1%,.,?,-2%,?,.,-1%,.
Cc1ccccc1NC(=O)Cn1cc(S(=O)(=O)c2ccccc2)c(=O)c2ccccc21,.,0.8%,7%[46.1 µM],.,5%,.,16%[46.1 µM],6%
Cc1cccc(Nc2ccncc2S(=O)(=O)NC(=O)NC(C)C)c1,-5%[18.4 µM],2.2%&-0.9%,.,-8%,-16%&1%,.,.,1%&0%
COc1cc([N+](=O)[O-])ccc1NC(=O)COC(=O)CCS(=O)(=O)c1ccc(C)cc1,-1%,.,-1%,2%,-15%,.,8%[46.1 µM],.
COc1ccccc1NC(=O)c1cc([N+](=O)[O-])ccc1NCCN1C(=O)CCC1=O,4%,.,-2%,1%,27%,0%,1%,.
COCCn1c(SCC(=O)NC(=O)NCc2ccccc2)nc2ccccc21,7%,1.3%,?,-1%,-8%,-10%,-33%,4%
COC(=O)c1ccc(C2Nc3c(C)cccc3-c3cc(C)nn32)cc1 (stereo not drawn),.,-22%,-17%[46.1 µM],.,-26%,.,-2%[46.1 µM],?
CCN(CC)c1nc(SCCOC(=O)Nc2ccccc2)nc(N(CC)CC)n1,-10%,-1.5%,?,-21%,.,-3%,?,-17%
Cc1ccn2cc(C(=O)Nc3ccccc3N3CCOCC3)nc2c1,-4%,-5.7%,-6%,1%,.,-56%,4%,-2%
Nc1nonc1N/N=C/c1c(O)ccc2ccccc12,3%,.,?,-2%,0%,.,-18%[46.1 µM],.
CCc1ccccc1NC(=O)COC(=O)c1cn(CC)c2nc(C)ccc2c1=O,.,-2.0%,2%[46.1 µM],.,-8%,.,-13%[46.1 µM],-5%
CCN1C(=O)S/C(=C/c2c(OCc3ccc(C(=O)O)cc3)ccc3ccccc23)C1=O,-11%,?,-7%,-74%,-12%,-21%,9%,?
COc1cccc(-c2nn3c(-c4ccccn4)nnc3s2)c1,-14%,-2.3%,4%&4%,2%,0%,1%,22%,1%
COc1ccc([N+](=O)[O-])cc1N(CC(=O)N(C)C)S(C)(=O)=O,16%,.,22%[46.1 µM],0%,1%,5%,?,.
# (further entries)
SMILES,RE007 growth inh,Cruzain inh Det,MARV entry inh,SARS PLpro yeast,2A StopGo,NS1 inh,LASV entry inh,Cruzain inh noDet
CN=C(Nc1cccnc1)c1ccccc1,7%,.,?,1%,-3%,7%,-1%[46.1 µM],.
CCN(c1ccccc1)S(=O)(=O)c1ccc(C(=O)NCCc2ccc(S(N)(=O)=O)cc2)cc1,-17%,.,-7%[46.1 µM],-14%,-3%,-6%,-17%[46.1 µM],.
CC(=O)Nc1ccc(CN2CCCN(C)CC2)cc1,-18%,.,.,0%,-1%,4%,.,.
CCCC(=O)Nc1nnc(SCC(=O)NC2CC2)s1,-13%,.,-9%[46.1 µM],4%,2%,6%,?,.
COc1ccc(C)cc1NC(=O)Nc1ccccc1OCc1cc(=O)n2ccccc2n1,.,-8.2%,.,.,-13%,.,-1%[46.1 µM],?
Cc1noc(C)c1S(=O)(=O)N(CC(=O)Nc1ccc(C(F)(F)F)cc1)c1ccc(C(C)C)cc1,.,-3.7%,?,.,?,.,10%[46.1 µM],?
CCC(C)c1ccc(NC(=S)NN2CCOCC2)cc1 (stereo not drawn),4%,0.9%,?,?,31%[activator],4%,25%,7%
CSc1nc(C)cc(OCC(=O)N/N=C/c2ccccc2O)n1,-19%,-5.8%,2.8µM*,26%,?,-3%,?,-13%
Cc1oc(-c2ccc(Cl)cc2)nc1CN1CCC(C(=O)NCCCN2CCN(c3cccc(Cl)c3)CC2)CC1,.,-12%,?,.,25µM*,.,?,-26%
CCCN(CCC)c1nc(C#N)nc(N(CCC)CCC)n1,10%,.,0%&0%&0%[46.1 µM],-3%,?,.,-16%,.
COc1ccc(C(=O)CC(=O)Nc2ccc([N+](=O)[O-])cc2)cc1,-27%,.,.,-5%,-12%,-14%,.,.
CC(Oc1ccc(F)cc1)C(=O)Nc1cc(C(F)(F)F)ccc1-n1cncn1 (stereo not drawn),1%,.,?,-1%,-5%,.,5%,.
COc1cc(Nc2ncc3c(n2)CCN(Cc2cccc(C)c2)C3)cc(OC)c1,.,-6.8%,.,.,-3%,.,-18%[46.1 µM],-4%
